High-throughput results: PubChem BioAssay, ICCB-Longwood Screening Facility, Harvard Medical School
GIV Gai3 FP = inhibitors of GIV peptide binding to Galpha-i3, primary screen, biochemical, fluorescence polarization, FITC-GIV GBA peptide, rat Galphai3. hit rate 0.42% among 210,000. percent of control (FP), % (test concentration not listed). Guanine nucleotide-binding protein G(i) subunit alpha-3 (Rattus norvegicus), P08753. 90 min; active compounds read low; scaled: aluminum fluoride 0%, vehicle 100%;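 active means replicate mean at 85% of control or lower, very high polarization wells dropped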;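 further: lower values mean more displacement of the GIV peptide from Galpha-i3; wells of about 15 µL received 100 nL stock; the first replicate is given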
Target sequence (P08753 whole entry, looked up): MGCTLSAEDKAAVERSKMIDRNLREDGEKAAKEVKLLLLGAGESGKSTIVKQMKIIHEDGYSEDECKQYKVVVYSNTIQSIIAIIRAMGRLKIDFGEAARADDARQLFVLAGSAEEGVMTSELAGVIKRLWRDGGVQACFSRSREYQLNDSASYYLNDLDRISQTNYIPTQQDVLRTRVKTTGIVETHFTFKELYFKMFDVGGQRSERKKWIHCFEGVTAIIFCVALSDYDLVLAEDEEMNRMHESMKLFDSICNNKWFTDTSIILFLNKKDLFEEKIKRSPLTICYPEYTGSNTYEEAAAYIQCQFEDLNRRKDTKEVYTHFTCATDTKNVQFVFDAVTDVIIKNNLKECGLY
Sa growth 42C = S. aureus growth inhibition at 42 and 30 °C, primary screen, LtaS inhibitor project, RN4220, two temperatures; OD600, 20 h, 42 °C; active compounds read low; relative growth, % (no concentration beside the values); hit rate 0.53% among 170,000;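 active means growth at 42 °C up to 50% and 20 or more points under that at 30 °C, or under 10% at both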;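 further: 300 nL library stock went into each well; scaled to the means of positive and negative controls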
HCMV NEC inh = inhibitors of HCMV UL50-UL53 interaction, biochemical, HTRF; hit rate 0.15% among 190,000; HCMV UL50-UL53 nuclear egress complex (human cytomegalovirus); normalized percent inhibition; AID 1918969, 2023; inhibition, % (concentration not given with the values);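 active means both replicates at 50% or more, plus weaker picks with an unusually low signal ratio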;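 further: stock transfer was 100 nL into about 20 µL; 0% = negative control wells and 100% = wells with untagged competitor protein; inactives centre near -12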
Sa growth 42C second temp = also measured in Sa growth 42C; calls as there; relative growth, %; measured here: growth at 30 °C;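 optical density after 20 h as mean of two plates; 100% = untreated growth and lower means inhibition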
Numbers without * were called inactive; . = no result given.

mol	GIV Gai3 FP	Sa growth 42C	Sa growth 42C second temp	HCMV NEC inh
COCCNC(=O)C1CCN(c2nc3ccccc3nc2C(F)(F)F)CC1	100	95	86	.
CCCCNc1nnc(SC(C)C(=O)NC(=O)NC)s1 (stereo unspecified)	.	109	97	3
CCCCc1cc(C)c2[nH]cc(C(=O)O)c(=O)c2c1	106	84	89	1
O=C(CSc1nc2nc[nH]c2c(=O)[nH]1)Nc1ccc(N2CCOCC2)cc1	104	.	.	-17
Cc1cc(/C=N/n2cnc3c(cnn3-c3ccccc3)c2=O)c(C)n1CC(C)C	.	100	97	-18
Cc1noc(C)c1C(=O)N(CC(=O)NC1CCCC1)Cc1ccccc1F	108	84	93	0
COc1cccc(NC(=O)Cn2c(=O)n(-c3ccc(CC(=O)NCC4CCCO4)cc3)c(=O)c3ccccc32)c1 (stereo unspecified)	102	104	84	-8
Cn1c(SCc2ccccc2)nnc1C1CCCN(CC(=O)Nc2ccc3c(c2)OCO3)C1 (stereo unspecified)	101	82	77	-18
COc1ccc(NC(=O)CCNS(=O)(=O)c2cccc3nsnc23)cc1OC	102	117	90	-78
CC(C)Cn1c(N)c(C(=O)CSc2ncccn2)c(=O)n(C)c1=O	.	96	102	10
S=c1[nH]nc(SCc2ccccc2)s1	96	71	29	-3
COc1ccc(NC(=O)c2cn(-c3ccc(-c4noc(C)n4)cc3)nc2C)cc1	103	.	.	8
CCOC(=O)/C(C#N)=C/c1ccc(-c2ccc(Br)cc2)o1	105	104	98	12
CCSc1nnc(-c2ccncc2)n1Cc1ccccc1	106	109	99	-20
CCOC(=O)c1c(CSc2ccccc2)n(C2CCCCC2)c2cc(Br)c(O)cc12	97	.	.	-14
CCc1nc(-c2cc(S(=O)(=O)NCC(=O)N3CCCC3)c(C)s2)no1	103	.	.	-3
O=C(Cc1ccccc1Cl)NC1(O)C(=O)c2ccccc2C1=O	70*	84	85	31
CC(=O)N1CCN(C(=O)c2cccc(Oc3ccccc3)c2)CC1	.	132	86	-16
Nc1ccn([C@@H]2O[C@H](CO)[C@@H](O)C2(F)F)c(=O)n1	110	0.3*	0.4*	-32
COc1ccc(C2CC(c3ccc(C)cc3)=NN2S(=O)(=O)c2ccc(C)cc2)cc1 (stereo unspecified)	167	109	90	.
O=c1cc(CNc2ccccc2)nc2nc(NCc3ccccc3)[nH]n12	89	.	.	-39
CC(Oc1cccc(C(F)(F)F)c1)c1ccnc(N)n1 (stereo unspecified)	103	.	.	-11
C=CCN1C(=O)/C(=C\c2cc(OC)c(O)c(OC)c2)SC1=S	242	106	100	-21
Cc1ccc(S(=O)(=O)CCSc2nccn2C)cc1	104	90	81	-43
OC(C#Cc1ccccc1)c1ccco1 (stereo unspecified)	121	105	44	0
COc1cc(OC)c(C(=O)OC2CCCC2=O)cc1OC (stereo unspecified)	.	120	87	-22
COc1ccc(C2CC(C(F)(F)F)n3ncc(C(=O)NCC4CCCO4)c3N2)cc1OC (stereo unspecified)	103	82	85	.
CN(CC(=O)N1CCN(c2ccccn2)CC1)c1nnc(N2CCCCC2=O)s1	101	.	.	-18
Cc1ccc(NC(=O)Cc2ncon2)cc1Cl	101	114	84	.
COc1cccc(C(=O)NCCc2sc(-c3cccc(C)c3)nc2C)c1	98	97	74	.
Cc1ccccc1N1CCN(S(=O)(=O)c2nnc(NC(=O)c3ccc(C(C)C)cc3)s2)CC1	104	103	81	-10
CCc1nc2ccccc2n1C(=O)CCCC(=O)O	.	98	87	-17
COc1ccc(COCC(O)CN2CC(C)OC(C)C2)cc1 (stereo unspecified)	.	91	91	-20
Cc1ccc(-c2cc(C(=O)NCc3ccncc3)c3ccccc3n2)cc1	107	.	.	-33
O=C(N/N=C/C1=C(N2CCOCC2)C(=C\c2ccccc2)/CC1)NC1CCCCC1	.	84	93	-30
CCS(=O)(=O)c1c(Nc2cc(C)ccc2C)sc(C(=O)c2ccccc2)c1N	109	90	84	5
Cc1ccc(-c2cc3ncc(C(=O)c4cc(Br)ccc4O)cn3n2)cc1	99	.	.	-27
O=S(=O)(NC1CCCC1)c1cccc2cccnc12	104	113	98	.
Cc1cc(C)cc(NS(=O)(=O)c2ccc3[nH]cc(C(=O)N4CCCC4)c(=O)c3c2)c1	103	102	91	-18
O=C(Cn1cnc2scc(-c3ccccc3)c2c1=O)N1CCCC1	95	96	93	-6
O=C(NCC(c1cccnc1)N1CCc2ccccc2C1)C(=O)Nc1cccc(Cl)c1 (stereo unspecified)	106	106	96	-26
CC1(C)CC(=O)C(C=NCc2ccccc2)=C(O)C1	96	91	99	-20
O=c1[nH]ccn(-c2ccc(F)c(F)c2)c1=O	98	.	.	-26
CC1CN(C(=O)N2CCC(C(=O)O)CC2)c2cc(Cl)ccc2O1 (stereo unspecified)	104	105	95	.
Nc1nc(CSc2nnc(-c3ccccc3O)n2Cc2ccccc2)cs1	105	78	93	-13
CCSc1nc(-c2ccc(OC)cc2)nc2c1Cc1c(CO)cnc(C)c1O2	105	104	90	.
CCc1ccc(Nc2nnc(C)c(=O)[nH]2)cc1	98	.	.	-28
COc1cn(CC(=O)Nc2ccc(C)cc2C)c(CN2CCCCC2)cc1=O	105	102	91	.
CCOC(=O)c1cnc2ccc(C(=O)OC)cc2c1Nc1ccccc1CC	104	97	102	13
N#C/C(=C\c1ccc(-c2cc(C(F)(F)F)cc(C(F)(F)F)c2)o1)C(=O)NCCc1c[nH]c2ccccc12	112	101	96	-7

Fetched by structure from above (two):
mol	GIV Gai3 FP	Sa growth 42C	Sa growth 42C second temp	HCMV NEC inh
O=C(Cc1ccccc1Cl)NC1(O)C(=O)c2ccccc2C1=O	70*	84	85	31
COc1ccc(C2CC(c3ccc(C)cc3)=NN2S(=O)(=O)c2ccc(C)cc2)cc1 (stereo unspecified)	167	109	90	.

Other records follow:
mol	GIV Gai3 FP	Sa growth 42C	Sa growth 42C second temp	HCMV NEC inh
CN(CCOc1cccc(C(F)(F)F)c1)Cc1ccccc1	.	104	96	13
O=C(CCCc1nc(-c2ccccc2)no1)Nc1cc(C(F)(F)F)cc(C(F)(F)F)c1	97	98	79	-30
CCCCCCNC(=O)CCc1c(C)nc2nc(-c3cc(OC)cc(OC)c3)nn2c1C	104	100	85	-20
C/C(Cc1ccccc1OC(=O)c1ccccc1)=N/O	.	108	84	-32
COc1cc(NC(=O)CC(c2ccc(C)cc2)N2Cc3ccccc3C2=O)cc(OC)c1 (stereo unspecified)	107	126	76	.
CC(C)CCC1(C)NC(=O)N(Cc2ccc(C#N)cc2)C1=O (stereo unspecified)	.	101	98	-35
CCCCn1c(SC2CCCCC2=O)nc2cc(S(N)(=O)=O)ccc21 (stereo unspecified)	.	88	99	0
O=c1[nH]nc(SCc2ccccc2)n1C1CC2C=CC1C2 (stereo unspecified)	106	110	102	-12
COc1ccccc1Nc1snc2[nH]c(C(=O)c3ccc(C)cc3)cc12	99	106	81	-9
CCNC(=O)CCNS(=O)(=O)c1cc(C(=O)OC)n(C)c1	104	.	.	-11
O=C(Nc1c(Cl)cccc1Cl)N1CCOC12CCCCC2	105	97	85	-23
O=C(Nc1ccc(Oc2ncnc3sc4c(c23)CCCCC4)cc1)c1ccco1	.	56	86	-34
Cc1ccc2nc(NC(=O)c3cn(-c4ccc(-c5noc(C6CC6)n5)cc4)nc3C)sc2c1	98	.	.	-15
Cc1ccc(C(=O)CS(C)(=O)=O)cc1	98	99	101	-1
C=CCOc1ccccc1CN(C(=O)c1ccco1)c1ccc2c(c1)OCO2	.	85	96	-26
O=C1Cn2c(nc3ccccc32)N1c1ccccc1F	98	87	81	.
CC1=C(C(=O)N(C)C)C(c2ccccc2Cl)NC(=O)N1 (stereo unspecified)	102	105	85	-2
Cc1nn(C(=O)COc2ccccc2)c(C)c1Sc1ccccc1	102	105	105	16
CCN(CC)C(=O)C1CCCN1S(=O)(=O)c1cc2c(cc1C)NC(=O)C(C)O2 (stereo unspecified)	104	.	.	30
Clc1ccc(-c2csc(COc3ccc4nonc4c3)n2)cc1	105	108	92	-4
Cc1ccc(Cn2c(CO)cnc2SCC(=O)N2CC(C)OC(C)C2)cc1 (stereo unspecified)	109	95	88	5
FC(F)(F)c1ccccc1-c1ccc(-c2nnc(-c3ccco3)o2)o1	102	86	89	-26
Cc1ccc(Nc2c(-c3ccc(N(C)C)cc3)nc3ncccn23)cc1	116	.	.	-42
CCc1ccc(-n2c(=O)c3cccnc3n2CC(=O)Nc2ccc(F)c(F)c2)cc1	105	.	.	-18
NC(=O)C1CCN(CC(O)(c2ccccc2)c2ccccc2)CC1	102	104	95	34
CN1CCCN(c2nc3ccccc3nc2NS(=O)(=O)c2ccc(Cl)cc2)CC1	.	95	89	-29
Cc1onc(-c2c(Cl)cccc2Cl)c1/C(N)=N/OC(=O)C1CC1	103	92	67	-35
COc1ccc(CCNC(=O)CSc2ccccc2C(=O)N2CCN(C(C)=O)CC2)cc1OC	.	104	94	-15
NC(=O)c1cc(NC(=O)C2CCCC2)cc(C(N)=O)c1	.	88	87	-30
COc1nc2ccccc2nc1CCC(=O)O	103	84	88	-42
CC1CC(C)CN(S(=O)(=O)c2ccc(C(=O)OCc3nnc(-c4ccc(Cl)cc4)o3)cc2)C1 (stereo unspecified)	.	103	99	-7
Cc1cc(C)c(S(=O)(=O)N2CCC(n3cnc4cccnc43)CC2)c(C)c1	100	.	.	-5
CC(C)C(NS(=O)(=O)c1ccc2c(c1)CCCC(=O)N2)C(=O)NCc1ccc(Cl)cc1 (stereo unspecified)	112	.	.	-8
c1coc(C2NCCc3ccccc32)c1 (stereo unspecified)	101	99	94	4
Cc1cccc(C(=O)Nc2ccccc2-c2nc(-c3ccccc3)no2)c1	99	98	88	-2
CCC(CC)NC(=O)CSc1nnc(-c2ccc(C)cc2)n1N	.	76	87	-16
COc1ccc(Cn2c(=O)c3oc4ccccc4c3n(Cc3cccc(C(F)(F)F)c3)c2=O)cc1	103	125	84	.
CC(C)(C)c1ccc(OCC(=O)NC(c2ccccc2)c2ccccc2)cc1	.	102	90	-16
CCN1CC=C2C(C#N)=C(N)C(C#N)(C#N)C(C)C2C1 (stereo unspecified)	94	87	78	-33
COc1ccc(-c2nn3c(N4CCN(c5nc(C)cc(C)n5)CC4)cc(C)nc3c2C)cc1OC	109	.	.	-19

As entered above:
c1coc(C2NCCc3ccccc32)c1 (stereo unspecified) | Sa growth 42C: 99
CC(C)(C)c1ccc(OCC(=O)NC(c2ccccc2)c2ccccc2)cc1 | Sa growth 42C second temp: 90
COc1ccc(-c2nn3c(N4CCN(c5nc(C)cc(C)n5)CC4)cc(C)nc3c2C)cc1OC | HCMV NEC inh: -19
COc1ccc(Cn2c(=O)c3oc4ccccc4c3n(Cc3cccc(C(F)(F)F)c3)c2=O)cc1 | Sa growth 42C: 125
Cc1cc(C)c(S(=O)(=O)N2CCC(n3cnc4cccnc43)CC2)c(C)c1 | HCMV NEC inh: -5

The list continues.
mol	GIV Gai3 FP	Sa growth 42C	Sa growth 42C second temp	HCMV NEC inh
CCOc1cc(C)[nH]n1	99	99	109	3
Cn1cc(NC(=O)Nc2ccc(C(F)(F)F)cc2)c(C(F)(F)F)n1	102	56	77	5
COc1ccc(N2CC(NC(=O)NCCn3c(C)cc4ccccc43)CC2=O)cc1OC (stereo unspecified)	102	107	97	-4
O=C(CNCC1CCCO1)Nc1ccccc1-n1cccc1 (stereo unspecified)	100	103	74	-2
NC(=O)c1ccsc1NC(=O)CSc1ccccc1	102	90	67	-32
C/C(N)=C\C(=O)Nc1ccccc1	106	112	95	-17
O=C(c1ccc(N2C(=O)CCS2(=O)=O)cc1)N1CCCc2ccccc21	102	.	.	-21
Cc1ccc(C(c2sc3nc(-c4ccco4)nn3c2O)N2CCCCC2)cc1 (stereo unspecified)	101	127	88	.
CCOc1ccc(S(=O)(=O)Nc2cccc(-c3ccc(OCC)nn3)c2)cc1	105	120	95	.
CCOC(=O)c1cnc2cc(C)[nH]n2c1=O	99	101	79	-21
CC1=C(C(=O)Nc2ccccc2C(F)(F)F)C(c2cccnc2)C2=C(CC(c3ccccc3)CC2=O)N1 (stereo unspecified)	104	.	.	-25
Cc1ccc(-n2cc(C(=O)O)nn2)cc1	101	.	.	5
Cc1nnc(Nc2ccccc2)n(N)c1=O	103	92	90	-33
CCC(C#CCN1CCCCC1)(CC)OC(C)=O	105	102	99	-27
O=C(NCc1ccc2c(c1)OCO2)c1cccc(-c2noc(C3CCC3)n2)c1	102	.	.	-19
CC(C)CN1C(=O)c2ccc(C(=O)NC3CCCCC3)cc2C1=O	105	103	97	5
CSc1nc(N)n(-c2cc(C(F)(F)F)cc(C(F)(F)F)c2)n1	106	89	88	-13
CC1CCc2c(cnc3c(C(=O)NCc4cccnc4)cnn23)C1 (stereo unspecified)	104	.	.	-9
CC(=O)Nc1c(C)cc(C)cc1-c1nnc(SCC(=O)Nc2ccc(Cl)cc2)[nH]c1=O	112	.	.	-19
